Bioassay records: PubChem, several laboratories
Beta apoptosis: blocks beta cell apoptosis; AID 435005; protection from apoptosis, % (test concentration not listed); 0.8% of 300,000 active; INS-1E cytokine-induced death, ATP luminescence, 48 h; percent of positive-control rescue, neutral wells zero;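 active means all replicates at 75% or more, or half of them and the mean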;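 further: 0% = cytokine-treated negative control wells and 100% = positive control rescue; higher means more ATP so stronger rescue from cytokine killing; wells of about 40 µL received 100 nL stock; the first replicate is given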
UCH37 DUB inh: inhibitors of human deubiquitinating enzyme UCH37; Q9Y5K5; purified proteasome/UCH37, Ub-AMC cleavage fluorescence; inhibition, % (test concentration not listed); 0.33% of 330,000 active; AID 588478;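 active means mean of two replicates above 20%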;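 further: 0% = compound-free wells with enzyme and 100% = wells lacking proteasome; stock transfer was 100 nL into about 20 µL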
Target sequence (Q9Y5K5 whole entry, looked up): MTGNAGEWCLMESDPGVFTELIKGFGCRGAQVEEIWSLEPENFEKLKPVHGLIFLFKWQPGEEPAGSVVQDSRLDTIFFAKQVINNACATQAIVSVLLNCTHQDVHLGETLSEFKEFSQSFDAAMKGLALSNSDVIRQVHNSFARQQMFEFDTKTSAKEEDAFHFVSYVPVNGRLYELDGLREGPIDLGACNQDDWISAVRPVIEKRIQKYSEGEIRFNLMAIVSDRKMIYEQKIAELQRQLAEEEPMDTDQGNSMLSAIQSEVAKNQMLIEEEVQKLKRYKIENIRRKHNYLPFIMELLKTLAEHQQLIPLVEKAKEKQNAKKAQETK
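Material: human UCH37 enzyme supplied as purified proteasome complex / Amount: 0.15 nM proteasome as dispensed / Buffer or medium: pH 7.4 Tris-HCl (50 mM) with ovalbumin, ATP-MgCl2, DTT / Times: preincubation 30 min, reaction 25 min, room temperature / Technique: AMC fluorescence from Ub-AMC cleavage, excitation 355 nm, emission 460 nm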
FGF22 binding: binders of recombinant human FGF22 by thermal shift | Q9HCT0 | SYPRO orange fluorescence; percent of sucrose octasulfate shift, DMSO zero | calls only at 9.99 µM | 1.5% of 340,000 active;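 active means melting point raised past a set limit in the mean and every replicate; three in four hits are not shown here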
rRNA inh HTS: inhibitors of bacterial rRNA selective over humanized ribosomes | 1.6% of 350,000 active | E. coli WT GFP vs humanized-ribosome RFP mutants, fluorescence, 24 h; active compounds read low; DMSO median 0, no signal -100 | GFP signal change (wild-type ribosome), % (no concentration beside the values) | AID 720706;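 active means significant combined selectivity score with lowered wild-type GFP, culture density cut under 30%, mutant RFP and density less affected; inactive means any of these conditions unmet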; further: one replicate is shown; some compounds called inactive have numbers as strong as hits
MLL AF4-AF9 inh: MLL-AF4/AF9 protein interaction inhibition. P42568. AlphaScreen, biotin-AF4 peptide binding to FLAG-AF9. inhibition, % at 10 µM. 0.47% of 350,000 active. AID 651704;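 active means every replicate reaching a set inhibition limit, whatever the replicate mean, cut at about 25% in these data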;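 further: 0% = plate neutral control median and 100% = total signal loss; the record names both 10 and 1 µM as test concentration; the first replicate is given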
Target sequence (P42568 whole entry, looked up): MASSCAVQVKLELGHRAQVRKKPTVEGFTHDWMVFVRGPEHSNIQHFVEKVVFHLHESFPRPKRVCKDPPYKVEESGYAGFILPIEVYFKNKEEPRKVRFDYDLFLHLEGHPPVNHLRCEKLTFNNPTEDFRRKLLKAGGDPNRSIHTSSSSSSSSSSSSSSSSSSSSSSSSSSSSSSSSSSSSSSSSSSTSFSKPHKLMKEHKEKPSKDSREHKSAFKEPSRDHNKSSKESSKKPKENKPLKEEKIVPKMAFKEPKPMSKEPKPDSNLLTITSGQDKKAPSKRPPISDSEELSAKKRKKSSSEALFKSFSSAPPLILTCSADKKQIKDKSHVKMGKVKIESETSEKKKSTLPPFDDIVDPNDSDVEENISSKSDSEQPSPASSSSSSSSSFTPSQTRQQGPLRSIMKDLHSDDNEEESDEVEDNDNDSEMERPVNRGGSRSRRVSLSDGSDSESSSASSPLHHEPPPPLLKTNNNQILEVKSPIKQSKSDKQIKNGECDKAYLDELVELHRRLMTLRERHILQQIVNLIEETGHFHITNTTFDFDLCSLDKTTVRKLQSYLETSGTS
A1 inh: inhibitors of the anti-apoptotic protein A1, read as caspase activation; MEF A1-2A-BIM cells, Caspase-Glo 3/7 luminescence, 3 h; percent of clofoctol response, vehicle zero; caspase activation, % (test concentration not listed); 0.066% of 330,000 active; AID 2462;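 active means over half of replicate activation scores above 10%, or exactly half above 10 with the replicate mean above 10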;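 further: wells of about 30 µL received 50 nL stock; many hits fall short of the cut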
Ecoli growth: blocks Escherichia coli growth; OD600, 23 h; active compounds read low; OD600 absorbance (no concentration beside the values); 0.21% of 330,000 active;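 active means OD600 absorbance below the run mean of sample wells minus 3.6 SD, in any replicate, cut at about 0.56 in these data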;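 further: stock transfer was 300 nL into about 60 µL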
T cruzi repl: blocks replication of Trypanosoma cruzi; 1.4% of 300,000 active; inhibition, % (test concentration not listed); T. cruzi beta-gal in NIH3T3, luminescence, 90 h;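 active means mean inhibition across valid replicates above about 55%, limit read from the data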;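 further: signal also drops with host cell toxicity which is not excluded here; 0% = plate median of DMSO wells and 100% = zero luminescence signal; higher percent means less beta-gal luminescence so fewer parasites; stock transfer was 50 nL into about 50 µL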
rRNA inh HTS OD600: second read-out of rRNA inh HTS, no call of its own (marks repeat the call); OD600 change, %; measured here: OD600 growth;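 optical density of the mix in the first replicate; 0 = DMSO median and -100 = no signal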
rRNA inh HTS RFP: second read-out of rRNA inh HTS, no call of its own (marks repeat the call); RFP signal change, %; measured here: RFP humanized mutant strains;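 first replicate; 0 = DMSO median and -100 = no signal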
* = called active by the depositor; i = inactive; x = not tested or not shown. This is a subset; the hit share may differ from the screen's.

Sequence of screens – Beta apoptosis, UCH37 DUB inh, FGF22 binding, rRNA inh HTS, rRNA inh HTS OD600, rRNA inh HTS RFP, MLL AF4-AF9 inh, A1 inh, Ecoli growth, T cruzi repl
CC12CCC(=O)N1C(C(=O)Nc1nc3ccccc3s1)CS2 (centres undefined)
  2.8, x, i, 8.1, 10.5, 0.0, 0.0, -0.1, x, x
COc1ccccc1N1CCN(C(=O)c2cc(-c3ccc(C)cc3)on2)CC1
  -2.0, -2.0, x, x, x, x, x, 0.3, 0.682, 7.3
CCCCn1c(-c2sccc2C)n[nH]c1=S
  -7.7, 4.3, i, -14.8, -1.5, 2.1, -7.0, 0.4, 0.708, 4.4
O=c1[nH]c(N2CCOCC2)nc2ncn(Cc3ccccc3)c12
  -6.3, 2.3, x, x, x, x, x, 1.5, 0.688, -9.6
CCOC(=O)c1[nH]c(C)c(C(=O)OCC(=O)NCc2ccc(Cl)cc2)c1C
  3.4, -0.3, i, 8.7, 15.5, -3.1, -1.1, -0.1, 0.68, x
COc1cccc(CNC(=O)C2CCN(S(=O)(=O)c3c(C)nn(C)c3C)CC2)c1
  -1.9, 2.3, i, -0.2, 4.6, -1.8, -3.1, -1.1, 0.729, -18.6
CC(=O)Nc1ccc(S(=O)(=O)Nc2ccccc2C(=O)NCc2cccnc2)cc1
  -4.6, -0.6, i, 5.0, 30.6, 1.5, 0.7, 0.7, 0.718, 2.4
CC1CCN(C(=O)COc2ncnc3ccccc23)CC1
  -3.5, -1.9, i, 11.6, 1.5, 0.3, 1.4, 1.4, 0.727, 9.7
CC(C)(C)NC(=O)COc1ccc(CNCCc2ccccc2)cc1
  -10.0, 1.5, i, 20.1, 7.8, 2.0, 4.2, 0.1, 0.636, 36.1
CSc1nsc(SCC(=O)Nc2ccc(O)c(C(=O)O)c2)n1
  -5.8, x, i, 6.9, 8.8, -1.8, -4.6, -0.2, x, -1.9
O=C(CC1C(=O)NCCN1Cc1ccccc1C(F)(F)F)NCCc1ccccn1 (centres undefined)
  -1.0, 2.0, i, 13.5, 11.5, 2.4, -3.5, 0.4, 0.696, -22.4
Cc1cc(NC(=O)CSc2nnc(C)c(=O)[nH]2)no1
  x, 4.3, i, 2.7, 6.6, 10.3, -2.0, 0.9, 0.719, -8.2
O=C(C1CCC(=O)N(C2CCCCCC2)C1)N1CCN(c2ccccc2Cl)CC1 (centres undefined)
  -2.1, -1.1, i, -4.7, -12.3, -7.6, -1.3, -0.2, 0.696, 23.2
O=C(CC1CCCC1)OCn1nnc2ccccc2c1=O
  -4.4, 6.0, x, x, x, x, x, 0.5, 0.699, 4.7
O=C(O)c1cc(N/N=C/c2ccc(-c3ccc(F)cc3)o2)ccc1Cl
  7.5, x, i, -2.8, 4.3, 2.7, -0.1, -0.4, x, -5.2
O=C1C(=O)N(Cc2ccccc2)C(=O)N1CCOc1ccccc1
  x, 0.0, i, -6.7, -6.3, 1.5, -1.1, x, 0.627, x
COc1cc(NS(=O)(=O)c2ccc(Nc3nc(-c4ccccc4)cs3)cc2)nc(OC)n1
  0.4, -4.4, x, x, x, x, x, -0.2, 0.643, -3.4
C=CCNC(=O)CCc1nnc(C2(c3ccc(Cl)cc3)CCC2)o1
  -13.0, -1.0, i, 13.2, 8.6, -1.9, -1.1, -0.7, 0.663, 4.1
Cn1cc(S(=O)(=O)NCc2ccc(F)cc2)c(=O)n(C)c1=O
  -6.6, 0.8, i, 16.6, 11.9, 2.0, -1.3, 0.7, 0.708, -6.6
Cc1c(OC(C)C(=O)NCCN2CCOCC2)ccc2c3c(c(=O)oc12)CCC3 (centres undefined)
  -2.4, -79.4, i, 2.4, 5.0, 1.3, 0.6, -0.7, 0.715, -9.8

Single records, from the list above.
`CC(C)(C)NC(=O)COc1ccc(CNCCc2ccccc2)cc1` is listed with Beta apoptosis: -10.0; UCH37 DUB inh: 1.5; FGF22 binding: i; rRNA inh HTS: 20.1; rRNA inh HTS OD600: 7.8; rRNA inh HTS RFP: 2.0; MLL AF4-AF9 inh: 4.2; A1 inh: 0.1; Ecoli growth: 0.636; T cruzi repl: 36.1
`Cc1c(OC(C)C(=O)NCCN2CCOCC2)ccc2c3c(c(=O)oc12)CCC3` (centres undefined) is listed with Beta apoptosis: -2.4; UCH37 DUB inh: -79.4; FGF22 binding: i; rRNA inh HTS: 2.4; rRNA inh HTS OD600: 5.0; rRNA inh HTS RFP: 1.3; MLL AF4-AF9 inh: 0.6; A1 inh: -0.7; Ecoli growth: 0.715; T cruzi repl: -9.8

(cont.)
Sequence of screens – Beta apoptosis, UCH37 DUB inh, FGF22 binding, rRNA inh HTS, rRNA inh HTS OD600, rRNA inh HTS RFP, MLL AF4-AF9 inh, A1 inh, Ecoli growth, T cruzi repl
O=C(NCCc1ccccn1)c1ccc(OC2CCN(Cc3ccccn3)CC2)cc1
  -1.8, -0.1, i, 3.2, 5.8, -0.5, 2.5, 0.5, 0.732, -3.2
Cc1ccc(-n2nc(C)c3c2C(Br)C(C)(C)CC3=O)nc1 (centres undefined)
  x, 1.5, i, x, x, x, 2.3, x, 0.649, x
Cc1cnc(NC(=O)c2cc(-c3ccccc3)nn2-c2ccccc2)s1
  x, -17.7, i, 5.1, 3.0, -3.5, 4.0, x, 0.698, x
CCN(CC)c1ccc(C(=O)N/N=C(\C)c2ccc(O)cc2)cc1
  -7.9, x, i, -5.9, 3.9, 5.2, 0.6, 0.3, x, -49.5
C[C@@H](NC(=O)C(=O)c1c[nH]c2ccccc12)c1ccccc1
  -17.6, 4.2, i, 3.0, 3.3, -3.3, -1.5, -0.5, 0.761, 17.5
CCc1ccc(OCC(=O)N/N=C/c2ccc(OS(=O)(=O)c3ccc(C)cc3)c(OC)c2)cc1
  -4.2, x, i, 4.9, -5.2, 1.3, 0.4, 0.2, x, 27.4
COc1ccc2nc3oc(C(=O)N4CCN(c5cccc(C(F)(F)F)c5)CC4)cc3cc2c1
  -6.0, -30.5, x, x, x, x, x, -0.7, 0.736, 4.2
CCOc1ccc(NC(=O)CN2CCN(c3ccccc3C)CC2)cc1S(=O)(=O)N1CCCC1
  -6.7, 1.4, i, -13.5, -13.7, 2.5, 5.5, -0.8, 0.692, x
CCOC(=O)c1ccc2c(c1)n(CC)c(/C=C/Nc1ccccc1)[n+]2CC
  -20.5, 14.9, x, x, x, x, x, -1.1, 0.67, -47.5
C=CCNc1nc(NCCN2CCOCC2)nc(OC)n1
  4.1, 3.5, x, x, x, x, x, -1.8, 0.692, 1.9
CCCCn1c(N)c(N(CCOC)C(=O)CN2c3ccccc3CC2C)c(=O)[nH]c1=O (centres undefined)
  x, -0.5, i, 10.8, 13.0, 19.1, 0.2, 1.8, 0.61, -12.7
Cc1ccc(OCc2cc(C(=O)N3CCc4sccc4C3)no2)cc1C
  -13.6, -0.1, i, -1.3, -10.8, -0.5, -0.7, 0.6, 0.7, 5.8
COc1ccccc1-c1cc(C(=O)NC(C)c2ccccc2)no1 (centres undefined)
  1.8, 1.5, x, x, x, x, x, 0.5, 0.637, 13.5
CCCCn1c(N)c(N(CC)C(=O)COc2ccc(C#N)cc2)c(=O)[nH]c1=O
  -6.2, 4.1, i, 12.8, 11.1, 2.3, 1.3, -0.3, 0.656, x
COc1ccc(S(=O)(=O)Nc2cc(C)c(O)cc2C(C)C)cc1
  -9.8, 1.8, x, x, x, x, x, 0.3, 0.665, -6.1
O=c1[nH]c(=O)n(Cc2ccco2)c2c1C(C(F)(F)F)(C(F)(F)F)N=C(Cc1ccccc1)N2
  7.7, -19.2, x, x, x, x, x, -0.2, 0.737, 7.2
CCOC(=O)c1ccc(NC(=O)C2CC3CCC2C3)cc1 (centres undefined)
  x, 6.1, i, -33.9, -27.6, -2.6, 0.1, 0.2, 0.664, 3.2
CCOc1ccc(/C=C/C(=O)Nc2ccc(C(N)=O)cc2)cc1OC
  9.1, -130.7, x, x, x, x, x, 0.2, 0.726, -1.6
O=S(=O)(c1ccc(Oc2ccccc2)cc1)N1CCOCC1
  -8.2, -0.3, x, x, x, x, x, 0.1, 0.668, -8.0
CCc1cc(C(=O)Cc2ccccn2)c(O)cc1O
  0.1, 4.4, i, 8.2, 13.5, 2.6, -0.9, -1.8, 0.678, -13.2
c1ccc(-c2nn3nnnc3c3ccccc23)cc1
  3.0, -1.7, x, x, x, x, x, -0.3, 0.72, -11.3
COc1cccc(-c2nnc(-c3ccco3)o2)c1
  -5.7, -7.7, x, x, x, x, x, -0.1, 0.706, -3.0
Cc1cc(C)cc(NC(=O)N2CCc3ccccc3C2)c1
  24.3, 6.2, i, -9.3, -12.4, -2.3, -0.7, -5.8, 0.695, 14.0
COc1ccc(OC)c(Nc2cc(-c3ccccc3)nc(N)n2)c1
  15.4, -23.2, x, x, x, x, x, 0.5, 0.694, -8.3
O=C(Nc1ccc(Cl)c(C(F)(F)F)c1)C(=O)N1CCCCC1
  x, 6.9, i, -40.5, -71.8, -28.8, -1.0, -0.2, 0.668, -15.6
COC(=O)C1=C(N)Oc2cc(C)n(CCc3ccccc3)c(=O)c2C1c1cccnc1 (centres undefined)
  11.1, -0.6, x, x, x, x, x, -2.1, 0.708, 46.3
CN1C(=O)CC(P(=O)(c2ccccc2)c2ccccc2)N(C)C1=O (centres undefined)
  -4.1, -0.9, x, x, x, x, x, -0.4, 0.696, -0.6
CCn1cnc2cc(NS(=O)(=O)c3ccc(OC)c(OC)c3)ccc21
  -4.2, 0.7, i, -4.0, -20.4, -1.4, 0.3, -1.8, 0.673, -4.0
CCn1cc(CN2CCCC(C(=O)Nc3cccc(-c4cc5ccccc5[nH]4)c3)C2)cn1 (centres undefined)
  -0.6, -0.2, i, -1.7, -5.5, 1.2, 12.8, -0.8, 0.666, 35.7
NC(=O)c1ccc(NC(=O)CN2CCN(c3ccccc3)CC2)cc1
  -4.1, 1.8, i, 10.7, 14.2, 3.5, -0.9, 0.9, 0.697, 6.8
O=C(COC(=O)C1(c2ccccc2F)CCCC1)N1CCOCC1
  -3.3, -0.5, x, x, x, x, x, -0.2, 0.774, -4.2

A second format for part of the listing above:
Molecule	Beta apoptosis	UCH37 DUB inh	FGF22 binding	rRNA inh HTS	rRNA inh HTS OD600	rRNA inh HTS RFP	MLL AF4-AF9 inh	A1 inh	Ecoli growth	T cruzi repl
COC(=O)C1=C(N)Oc2cc(C)n(CCc3ccccc3)c(=O)c2C1c1cccnc1 (centres undefined)	11.1	-0.6	x	x	x	x	x	-2.1	0.708	46.3
CN1C(=O)CC(P(=O)(c2ccccc2)c2ccccc2)N(C)C1=O (centres undefined)	-4.1	-0.9	x	x	x	x	x	-0.4	0.696	-0.6
